gsp agonist: activates gsp, the McCune-Albright syndrome mutation; gsp mutant cells, cAMP HTRF, 30 min; control for the full effect not named in the record; Potency, µM (doses to about 76.9 µM), inactives show at the highest dose activation (cAMP increase), hits mostly activators; 0.13% of 340,000 active; AID 624287; active = well fitted activation curve with a large enough effect; inconclusive = small, poorly fitted or top-dose-only effect, or another doubt; inactive = no such curve, though single readings can be large or run the other way; cell line not stated here;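 note: phosphodiesterase inhibitor Ro 20-1724 added with compounds to block cAMP breakdown; potency is the fitted concentration of half-maximal effect; nearly all actives have a fitted effect of over 60% in size; about a fifth of the inactives were tested at one dose only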
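Cells stably selected in G418 were plated at 2000/well, grown 16-24 hr, then given compounds in DMSO with the PDE inhibitor […] (300 uM solution added) for 30 min at 37C; cAMP was read by HTRF.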
gsp antag: antagonizes gsp, the McCune-Albright syndrome mutation | Potency, µM (titrated, usually from 76.9 µM), inactives show top-dose activity change, negative = inhibition, actives largely listed as inhibitors | gsp-mutant cells, cAMP HTRF, 30 min; control for the full effect not named in the record | 0.4% of 340,000 active; active = falling curve of any shape with a large fitted effect; inconclusive = falling curve, mostly with a smaller effect; inactive = flat or rising curve; cell line not stated here;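 note: intracellular cAMP measured with PDE inhibitor Ro 20-1724 present during compound exposure; potency is the fitted concentration of half-maximal effect; % is set by controls: 0 for no effect and ±100 for the full control effect; nearly all actives have a fitted effect of over 65% in size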
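HTRF cAMP measurement after 30 min RT detection following 30 min, 37C compound treatment alongside […] (added as 300 uM solution) in G418-selected cells seeded at 2000/well and grown 16–24 h.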
D2 ag: activates the human D2 dopamine receptor; P14416; activation, % (no concentration beside the values); DiscoveRx PathHunter D2 beta-arrestin, luminescence, 90 min; 100% = 57 uM dopamine signal; 0.084% of 360,000 active; in the data active = activation above about 40%; inconclusive = about 15% to 40%; inactive = below about 15%; note: compound concentration not given in the record; the text of the record calls up to 30% inactive
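Agonist mode: compounds alone added to overnight-plated D2 PathHunter cells for 90 min at 37 C, with 57 uM final dopamine (EC100) defining full response. Beta-arrestin recruitment detected by chemiluminescent reagent, read after 1 h at ambient temperature.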
CtBP-E1A inh: blocks the CtBP interaction with E1A. AlphaScreen GST-E1A/His-CtBP binding, 1536-well; active compounds read low; control for the full effect not named in the record. activity change, % (test concentration not listed). 0.49% of 340,000 active. AID 651724; in the data active means activity change below about -65%; inconclusive means about -30% to -65%; inactive means above about -30%; note: % is set by controls: 0 for no effect and ±100 for the full control effect
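GST-E1A and His-tagged CtBP (125 nM each as 5X stock) were preincubated with pin-transferred compound for 2 h at 37 °C in the dark, then glutathione donor and nickel acceptor beads were added for 1 h before AlphaScreen reading.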
D2 PAM: potentiates the human D2 dopamine receptor allosterically. P14416. DiscoveRx D2 beta-arrestin cells, luminescence, 90 min; 100% = 57 uM dopamine signal. potentiation, % (no concentration beside the values). 0.23% of 360,000 active. AID 624464; active = potentiation of 50% or more; inconclusive = 30% to 50%; inactive = 30% or less;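 note: compound concentration not given in the record; tested on top of an EC20 dose of dopamine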
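PathHunter D2 cells, attached overnight at 37 deg C, received compound in DMSO plus dopamine at EC20 (50 nM final) for 90 min at 37 deg C. Beta-arrestin recruitment was read as luminescence after 1 h with detection reagent at ambient temperature.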
Six1-Eya2 inh: Six1/Eya2 interaction inhibition; Q15475+O00167; AlphaScreen GST-Six1/His-Eya2 binding, biochemical; active compounds read low; control for the full effect not named in the record; activity change, % (concentration not given with the values); 0.56% of 360,000 active; AID 651725; in the data active = activity change below about -65%; inconclusive = about -30% to -65%; inactive = above about -30%; note: % is set by controls: 0 for no effect and ±100 for the full control effect
Target sequence (O00167 whole entry, looked up): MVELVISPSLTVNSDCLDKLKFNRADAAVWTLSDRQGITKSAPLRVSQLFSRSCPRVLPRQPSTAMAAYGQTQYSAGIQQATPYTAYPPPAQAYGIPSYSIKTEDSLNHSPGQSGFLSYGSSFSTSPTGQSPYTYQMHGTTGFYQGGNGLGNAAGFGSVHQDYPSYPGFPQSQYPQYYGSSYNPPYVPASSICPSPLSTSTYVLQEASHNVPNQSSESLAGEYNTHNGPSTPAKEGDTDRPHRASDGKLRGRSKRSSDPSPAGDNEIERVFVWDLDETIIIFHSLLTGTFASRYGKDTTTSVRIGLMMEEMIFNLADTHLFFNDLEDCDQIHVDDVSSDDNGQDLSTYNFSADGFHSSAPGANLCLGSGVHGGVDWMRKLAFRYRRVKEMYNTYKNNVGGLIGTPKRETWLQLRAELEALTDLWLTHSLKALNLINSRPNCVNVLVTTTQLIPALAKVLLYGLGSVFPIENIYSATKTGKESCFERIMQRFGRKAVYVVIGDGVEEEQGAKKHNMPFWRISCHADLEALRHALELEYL
Target sequence (Q15475 whole entry, looked up): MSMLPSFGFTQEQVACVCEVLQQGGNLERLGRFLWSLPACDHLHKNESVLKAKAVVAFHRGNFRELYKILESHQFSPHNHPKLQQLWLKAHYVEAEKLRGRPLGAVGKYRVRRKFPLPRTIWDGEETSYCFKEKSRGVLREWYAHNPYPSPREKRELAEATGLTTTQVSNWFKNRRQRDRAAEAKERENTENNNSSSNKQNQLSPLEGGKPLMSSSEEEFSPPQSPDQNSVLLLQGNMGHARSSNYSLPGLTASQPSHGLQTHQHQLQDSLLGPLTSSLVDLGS
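AlphaScreen with GST-Six1 and His-Eya2 (5X mix: 250 nM and 500 nM), glutathione donor and nickel acceptor beads; buffer 50 mM Tris pH 8.0, 300 mM NaCl, 1 mM TCEP; 1 h at 37 C in the dark.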
An asterisk follows results filed as active; ? = inconclusive; / = not tested or not shown; [ ] = dose if it differs, or a comment.

SMILES	gsp antag	D2 PAM	D2 ag	CtBP-E1A inh	Six1-Eya2 inh	gsp agonist
CCN(CC(O)CON=C1c2ccccc2-c2ccccc21)S(=O)(=O)c1ccc(C)cc1 (configuration not stated)	-26.6%	-20.7	-1.2	5.7	12.7	-1.7%
CCCc1cc(C(=O)Nc2c(C)n(C)n(-c3ccccc3)c2=O)no1	7.7%	-6.0	2.9	0.6	-5.2	-10.6%
CC1CN(C(=O)Nc2ccc3c(c2)OCCO3)CC(C)O1 (configuration not stated)	2.2%	-4.2	-3.5	-3.4	5.9	6.7%[15.4 µM]
N#CCc1ccc(NS(=O)(=O)c2cccs2)cc1	6.1%	-10.1	0.6	-3.2	3.9	?
O=C(Cc1ccc(Cl)cc1)NCCCNC(=O)c1cccnc1	8.7%	-2.6	-2.0	0.2	1.3	?
Cc1ccccc1CNC(=O)C(=O)NCC1CCCN1S(=O)(=O)c1cccs1 (configuration not stated)	2.3%	7.8	-1.0	6.9	8.9	-14.7%
NC(COCc1ccccc1)c1csc(NC(=O)Nc2cccc(C(F)(F)F)c2)n1 (configuration not stated)	/	7.7	?	-10.5	-12.5	/
Cc1ccc(C(=O)N2CCN(S(=O)(=O)c3ccccc3)CC2)s1	3.5%	1.2	-0.8	-2.6	2.2	-7.7%
C=CCN(C(=O)CNC(=O)c1ccco1)C(C(=O)NC1CCCC1)c1ccc(OC)cc1 (configuration not stated)	14.6%	-14.1	-5.2	-1.4	-18.8	-7.4%[15.4 µM]
COc1ccc(NC(=O)C2Cc3c(-c4cccc(NC(C)=O)c4)ccnc3O2)cc1 (configuration not stated)	/	-5.1	5.6	-10.2	-0.4	/
Cc1ccc(NNC(=O)c2ccc(Cl)cc2)nn1	10.4%	-7.4	-3.7	2.7	0.6	-50.3%[inhibitor]
O=C(c1ccco1)N1CCN(Cc2cc(=O)c(OCc3ccc([N+](=O)[O-])cc3)co2)CC1	5.8%	7.0	6.3	1.3	1.0	30.1%[15.4 µM]
Cc1nnc(NC(=O)C2CCCN(S(=O)(=O)c3ccccc3C(F)(F)F)C2)s1 (configuration not stated)	-20.7%	21.4	-1.5	5.3	1.6	-29.4%
CCCSc1nc2sc3c(c2c(=O)n1CC)CC(C)(C)OC3	-3.4%	-8.3	-1.2	10.9	-3.8	-11.9%[15.4 µM]
O=C(CSc1cccc[n+]1[O-])Nc1ccc(C(F)(F)F)cc1[N+](=O)[O-]	-0.7%	11.0	3.9	2.6	0.8	?
CC(=O)Oc1ccc(/C=N\NC(=O)c2cc3c(ccc4ccccc43)o2)cc1	11.2µM*	0.7	-1.6	0.0	23.9	28.1%
CCCCc1nnc(NC(=O)c2ccc3c(=O)n4c(nc3c2)CCC4)s1	-22.9%	-0.1	1.3	-6.1	-7.4	2.5%[15.4 µM]
CCc1ccc(N2CC(C(=O)N/N=C/c3cc([N+](=O)[O-])ccc3O)CC2=O)cc1 (configuration not stated)	-20.5%	-8.1	-9.7	-88.4*	-79.8*	-3.5%[15.4 µM]
CSc1nnc(-c2sc3cc(C(F)(F)F)cnc3c2-c2ccccn2)n1C	-5.9%	-3.1	-1.5	4.8	4.5	-5.9%
COc1cc(NC(=O)C2CCCCC2)c(OC)cc1NC(=O)c1ccccc1	-9.4%	-1.9	0.3	1.3	-14.5	-10.5%[15.4 µM]
Cc1ncc(C[n+]2csc(CCOC(=O)CC3C4CC5CC(C4)CC3C5)c2C)c(N)n1 (configuration not stated)	-9.7%	22.8	-2.4	4.6	7.4	-30.1%[inhibitor]
C=CC[C@]12CCc3sccc3C1N(c1ccc(C(=O)OCC)cc1)C2=O (some centres not stated)	-9.7%	-3.0	-5.4	0.2	6.3	-43.5%[inhibitor]
Cc1ccnn1CC(=O)N/N=C/c1cn[nH]c1-c1ccc(F)cc1	9.1%	-15.8	-2.2	/	-13.1	?
O=C(CC1Sc2ccccc2NC1=O)Nc1ccccc1[N+](=O)[O-] (configuration not stated)	-4.7%	-8.7	4.3	0.5	3.9	21.1%
COc1ccc(/C=N/NC(=O)c2ccc(=O)[nH]n2)cc1OC	-0.3%	-8.5	1.3	2.0	2.8	-9.3%
CC1(C)CC(=O)C(N=Nc2ccc(F)cc2)=C(O)C1	7.0%	-3.7	-1.7	10.5	2.5	-56.1%[inhibitor]
Cc1nc2c(C#N)c(C)[nH]n2c(=O)c1Cc1ccccc1	-18.0%	-11.5	-0.1	10.8	-24.8	3.8%
O=S(=O)(c1ccc2oc3ccccc3c2c1)N1CCCC1	4.3%	-2.1	-2.6	0.1	-4.4	14.7%
Cc1cc(C(=O)NNC(=O)c2ccc(C)c([N+](=O)[O-])c2)c(C)o1	7.4%	-4.1	-1.0	2.3	0.7	-4.3%[15.4 µM]
O=C1NCCN1CCNc1nc(NCc2ccccc2)nc2ccsc12	/	-13.3	-4.5	2.8	-0.3	/

In a second layout: results already given
CC(=O)Oc1ccc(/C=N\NC(=O)c2cc3c(ccc4ccccc43)o2)cc1
  gsp antag = 11.2µM*
  D2 PAM = 0.7
  D2 ag = -1.6
  CtBP-E1A inh = 0.0
  Six1-Eya2 inh = 23.9
  gsp agonist = 28.1%
NC(COCc1ccccc1)c1csc(NC(=O)Nc2cccc(C(F)(F)F)c2)n1 (configuration not stated)
  gsp antag = /
  D2 PAM = 7.7
  D2 ag = ?
  CtBP-E1A inh = -10.5
  Six1-Eya2 inh = -12.5
  gsp agonist = /
CCCCc1nnc(NC(=O)c2ccc3c(=O)n4c(nc3c2)CCC4)s1
  gsp antag = -22.9%
  D2 PAM = -0.1
  D2 ag = 1.3
  CtBP-E1A inh = -6.1
  Six1-Eya2 inh = -7.4
  gsp agonist = 2.5%[15.4 µM]

(more compounds)
SMILES	gsp antag	D2 PAM	D2 ag	CtBP-E1A inh	Six1-Eya2 inh	gsp agonist
COc1ccc(/C=C/C(=O)NCC(=O)N/N=C/c2cc(Br)ccc2OCc2ccccc2)cc1	-5.8%	-10.6	0.9	4.2	-1.2	0.0%
O=C(N/N=C/c1ccc([N+](=O)[O-])o1)C1CCCC1	0.4%	4.8	2.9	-0.2	0.9	-16.6%
O=C(NCc1ccc2c(c1)OCO2)C(=O)NCC1OCCN1S(=O)(=O)c1ccc(F)cc1 (configuration not stated)	-3.0%	23.1	0.3	5.9	-0.6	-9.5%
COc1ccc(S(=O)(=O)N(C)CC(=O)N2CCN(C)CC2)cc1Cl	-2.6%	-3.8	-3.2	1.9	-0.5	21.0%
COc1ccc(C(=O)Nc2ccccc2-c2nnn(CC(=O)NCc3ccco3)n2)cc1	17.2%	-0.5	1.2	0.8	-1.5	-28.8%
CC(=O)Nc1ccc(S(=O)(=O)Nc2ccccc2C(=O)N2CCOCC2)cc1	-2.8%	-7.3	-2.4	4.9	-3.7	-12.2%[15.4 µM]
COc1cccc(CN(C(=O)c2ccco2)C(C(=O)NC2CCCC2)c2cccnc2)c1 (configuration not stated)	1.9%	-4.5	-1.8	-1.0	8.5	-26.6%
CCC(C)NC(=O)CSC1=Nc2ccccc2C2=NC(CCC(=O)NCc3ccco3)C(=O)N12 (configuration not stated)	-2.4%	4.0	-2.2	17.9	-0.4	-6.7%
COc1cc(CN2CCC(CO)(CCOc3ccccc3)CC2)cc(OC)c1	-5.9%	-28.1	-4.1	/	-0.7	-3.1%
CCOc1cc(/C=C(/C#N)C(=O)Nc2ccc(O)cc2)cc(Br)c1O	14.7%	-2.4	-6.3	?	?	-6.4%
Cc1nnsc1C(=O)N1CCN(c2ccc(F)cc2)CC1	2.1%	0.3	0.0	/	6.2	2.2%
O=C(NC(NCCCN1CCOCC1)(C(F)(F)F)C(F)(F)F)C1CCCCC1	1.6%	-0.8	-2.1	5.5	4.4	-46.8%[inhibitor]
Cc1cc(C(=O)NCc2ccccc2)no1	2.1%	3.9	-2.6	11.4	1.8	5.9%
Cc1ccsc1CN1CCN(c2ccccn2)CC1	9.7%	?	49.7*	3.1	1.4	-9.0%
O=C(NCC(c1ccco1)N1CCCCC1)c1cccc(S(=O)(=O)Nc2ccc(F)cc2)c1 (configuration not stated)	3.7%	-13.3	-0.2	0.8	-5.7	-7.2%[15.4 µM]
CCc1cccc(CC)c1NC(=O)C[n+]1cccc(C(N)=O)c1	4.0%	-2.8	-0.7	2.7	1.1	-1.0%[15.4 µM]
C/C(=N\Nc1ccc2nncn2n1)c1ccccn1	-5.1%	6.7	8.4	-95.5*	-91.1*	5.7%[15.4 µM]
CC(=O)Nc1ccc(S(=O)(=O)N2CCC(=O)Nc3ccccc32)cc1	6.8%	-4.2	4.4	4.1	4.6	-12.6%
C=CC(C)(C)c1c2occc2c(O)c2ccc(=O)oc12	-5.6%	-12.4	-3.7	0.0	-5.2	/
O=C(NCCCN1CCOCC1)c1cccc(S(=O)(=O)Nc2ccc(F)cc2)c1	9.6%	-3.9	2.3	0.5	2.1	-11.0%
CCCCCc1ccc(C2=NNC(=O)CC2)cc1	-9.3%	-2.9	-5.8	/	10.8	0.6%
Cc1cn([C@H]2C[C@H](O)[C@@H](CNC(=O)[C@H](N)Cc3cn(COCc4ccccc4)cn3)O2)c(=O)[nH]c1=O	/	/	-1.3	-2.4	0.1	2.0%
CN(C(=O)Cc1c(C(=O)O)n(C)c2ccccc12)c1ccc(F)cc1	3.1%	-8.4	4.8	19.0	3.4	20.8%[15.4 µM]
COc1ccc(-c2nnn(CC(=O)N(Cc3ccccc3Cl)C(C(=O)NCC3CCCO3)c3ccco3)n2)cc1 (configuration not stated)	-15.8%	-5.1	-2.7	8.3	0.8	0.0%
CCCNc1nc(C)nc2c1cnn2CCc1ccccc1	5.1%	-4.2	-3.7	-1.0	4.0	-47.8%[inhibitor]
COc1cccc(NC(=O)c2cc3ccccc3o/c2=N\O)c1	?	11.3	10.9	/	-0.6	-68.4%[inhibitor]
CC(C)CCNC(=O)COc1ccc(C(=O)c2ccccc2)cc1	-3.3%	-10.8	0.0	5.5	2.4	-20.3%
O=C(Nc1nc2ccccc2s1)c1cc(-c2ccco2)nc2ccccc12	-19.4%	-28.2	-3.9	-29.4	-21.8	4.1%
O=C(O)c1cccc(NC2=C(Cl)C(=O)c3ccccc3C2=O)c1	50.1µM*	0.5	41.5*	-22.1	-16.1	?
COCCNC(=O)C1=NOC(Cn2cc(C#N)c(=O)n(C)c2=O)C1 (configuration not stated)	4.5%	3.7	1.4	-21.5	14.7	-12.0%
Cn1c(=O)c2cc(NC(=O)CC(C)(C)C)ccc2n1-c1ccccc1F	/	-7.8	-4.0	0.2	2.5	/
Cc1ccc(NC(=O)Cn2cc(C(=O)C3CC3)c3ccccc32)c(C)c1	12.5%	-2.3	3.1	3.6	25.5	-4.0%[15.4 µM]
CCn1c(=S)sc2c(=O)n(CC(=O)Nc3ccccc3OC)c(C)nc21	-1.8%	-11.5	-1.8	-3.2	-0.1	-30.3%[inhibitor]
